High-throughput results (PubChem)
UUG fidelity: yeast start codon fidelity modulation | S. cerevisiae UUG-firefly luciferase reporter, luminescence/redox ratio | activity score, % at 18.7 µM | hit rate 0.13% among 350,000 | AID 602363;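 active means replicate mean at a twofold rise or more, about +100% in these data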;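 further: firefly luciferase made from a UUG start codon reports start codon fidelity; reporter light over untreated wells divided by growth signal over untreated wells; some hits fall short of that in this replicate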
eIF4H inh: inhibitors of RNA binding by human eIF4H | Q15056 | AID 2012 | inhibition, % at 35 µM | eIF4H fluorescence polarization binding assay | hit rate 0.94% among 290,000;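 active means 50% or more with normal probe brightness, or confirmed in later tests; inconclusive means above 50% with abnormal brightness, or retests that disagree; inactive means below 50% or failed in later tests; about a fifth of its hits are not listed in these tables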;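 further: calls also rest on retests at 20 µM and on dose response follow-up; 0% = protein and probe with vehicle and 100% = probe without protein; strong numbers were not always called active; many hits fall short of the cut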
MT1-MMP act inh: blocks activation of human MT1-MMP | P50281 | HT1080 RFP-PRO-GFP cells, GFP/RFP ratio fluorescence, overnight; percent of plate control window, DMSO zero | GFP/RFP ratio change, % at 20 µM | hit rate 0.061% among 360,000;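 active means GFP/RFP ratio change of at least 30% with cell ATP level not reduced by more than half and red fluorescence within 50% of control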; further: strong numbers were not always called active
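Material: RFP-PRO-GFP reporter HT1080 cells. Dosing: single-point 20 µM compound, 1% DMSO. Controls: DMSO and RFP-L50D-GFP cell wells. Timing: cells overnight before dosing, compound overnight, 37 °C, 5% CO2. Measure: GFP/RFP fluorescence ratio.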
Rce1 inhib: yeast Ras-converting enzyme inhibition; hit rate 0.27% among 290,000; calls only; Q03530; yeast membranes, quenched prenylated peptide cleavage fluorescence;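 active means fall in fluorescence gain of 50% or more versus controls, with final raw signal at or below 3038400; inconclusive means same 50% fall but final raw signal above 3038400; inactive means fall in fluorescence gain under 50%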;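 further: plate controls were neutral control wells for no effect and wells lacking membranes for full effect; tested at 10 µM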
Target sequence (Q03530 whole entry, looked up): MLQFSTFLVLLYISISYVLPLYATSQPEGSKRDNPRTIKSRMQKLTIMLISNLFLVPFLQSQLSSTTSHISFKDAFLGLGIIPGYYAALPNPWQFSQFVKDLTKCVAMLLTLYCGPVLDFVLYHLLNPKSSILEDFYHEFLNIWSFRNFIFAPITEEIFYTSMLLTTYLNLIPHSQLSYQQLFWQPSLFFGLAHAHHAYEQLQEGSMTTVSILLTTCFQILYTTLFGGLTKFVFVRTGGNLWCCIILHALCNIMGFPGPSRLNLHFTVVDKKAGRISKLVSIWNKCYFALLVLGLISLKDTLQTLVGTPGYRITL
Env fusion inh: inhibitors of HIV Env-mediated cell fusion; HeLa-JRFL Env/CEM21 cell fusion, luciferase; inhibition, % at 12.3 µM; hit rate 1.1% among 360,000;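 active means mean replicate inhibition score of at least 50 and every replicate individually at or above 50; inconclusive means only one of the two criteria met; inactive means mean below 50 and not all replicates reaching 50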;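 further: 0% = plate neutral controls and 100% = maraviroc near 300 nM; one replicate is shown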
CSC inhib: cancer stem cell inhibition | cancer stem cell-like cells viability, luminescence | inhibition, % at 7.5 µM | hit rate 1.1% among 300,000 | AID 2717;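 active means mean at 75% or more and at least half the replicates too; inconclusive means mean and replicates disagree; tested in HMLE shEcad cells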;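 further: 0% = median of negative and 100% = median of positive control wells; the first replicate is given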
PABP polyA inh: PABP-poly(A) binding inhibition; PABP-poly(A) RNA binding, fluorescence polarization; AID 2014; inhibition, % at 35 µM; P11940; hit rate 1% among 290,000;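 active means 50% or more with normal probe brightness, or confirmed in later tests; inconclusive means above 50% with abnormal brightness, or retests that disagree; inactive means below 50% or failed in later tests; about a fifth of its hits are not listed in these tables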;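 further: calls also rest on retests at 20 µM and on dose response follow-up; controls were probe without protein and protein plus probe with vehicle; some compounds called inactive have numbers as strong as hits; many hits fall short of the cut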
eIF4H inh retest: recorded beside eIF4H inh, whose call it bears; inhibition, %; compound at 20 µM; confirmation average;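 mean of two retest wells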
PABP polyA inh retest: further read-out of PABP polyA inh, marked with its call; inhibition, %; compound at 20 µM; confirmation repeats;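 mean of two retest wells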
MT1-MMP act inh RFP: second read-out of MT1-MMP act inh, no call of its own (marks repeat the call); RFP signal change, %; measured here: RFP expression control read;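 0 = vehicle wells; hits needed this value within 50% of zero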
Numbers without * were called inactive; i = inactive; ? = inconclusive; / = no result given; [ ] = dose if it differs, or a comment.

SMILES | UUG fidelity | eIF4H inh | MT1-MMP act inh | MT1-MMP act inh RFP | Rce1 inhib | Env fusion inh | CSC inhib | PABP polyA inh | others
CCOC(=O)N1CCN(C(=O)CNC2CCCCCCC2)CC1 | / | 3.1 | -1.9 | -1.9 | i | -4.5 | 17.5 | 6.4
CCOC(=O)c1cc(-c2cccc([N+](=O)[O-])c2)nc2[nH]c(=O)[nH]c(=O)c12 | / | -7.6 | 2.0 | -1.3 | i | 16.1 | 19.6 | -9.1
COc1cccc(C2CC(=O)Nc3c2c(=O)n(C)c(=O)n3C)c1OC (stereo not given) | -18.4 | 1.2 | 2.4 | 2.1 | i | 4.4 | -13.9 | 0.5
O=C(O)c1ccc(CSc2nnc(-c3ccncc3)n2-c2ccc(Cl)cc2)cc1 | / | -13.1 | -2.1 | -4.6 | / | -10.0 | -0.2 | -3.0
Cc1ccc(N2C(=O)C(Cl)=C(N3CCOCC3)C2=O)c(C)c1 | -2.4 | 3.0 | -0.1 | 0.4 | i | -6.4 | -18.4 | 1.7
O=C(c1ccc([N+](=O)[O-])cc1)N1CCc2ccccc2C1 | / | 4.6* | 2.7 | 2.5 | / | 13.0 | -3.0 | 65.3* | eIF4H inh retest=106.1*;PABP polyA inh retest=86.6*
O=Cc1cn(CC(=O)Nc2ccc3c(c2)OCO3)c2ccccc12 | / | 2.6 | -2.4 | -18.9 | i | 16.5 | -5.2 | -1.2
COc1ccc(OCC(=O)Nc2c3c(nn2-c2ccccc2)CS(=O)(=O)C3)cc1 | -17.4 | 0.4 | -4.4 | -4.2 | i | 7.7 | -6.2 | 7.7
COC(=O)c1ccc2c(=O)n(CCCCCC(=O)NCCNC(C)=O)c(=O)[nH]c2c1 | / | -7.1 | -3.6 | 1.3 | i | 16.5 | -12.7 | -7.8
CCOC(=O)c1ccc(-c2c(-c3ccccc3OC)sc3cc4c(cc23)OCO4)cc1F | -12.1 | / | -0.9 | -4.2 | / | 12.9 | 18.9 | /
COc1ccccc1CNC(=O)CN1C(=O)c2ccccc2S1(=O)=O | -14.7 | 10.4 | -1.1 | 0.3 | i | 8.8 | -5.4 | 3.3
COCCNC(=O)c1cc(-c2ccccc2C)nn1CC1CC(c2cccnc2)=NO1 (stereo not given) | -16.7 | / | 2.8 | -0.5 | / | -22.9 | / | /
O=C(Cc1ccc([N+](=O)[O-])cc1)N1CCN=C1SCc1ccccc1 | / | 0.2 | 9.9 | 8.3 | i | 5.1 | -4.9 | -6.9
C=CCC1(C#N)C(=S)NC(C)=C(C(=O)OCC)C1c1ccccc1 (stereo not given) | -25.7 | -10.7 | 2.2 | 0.0 | i | 19.1 | -8.6 | 0.5
CC(c1ccccc1)N1C(=O)NC(NC(=O)c2cccnc2)(C(F)(F)F)C1=O (stereo not given) | -10.5 | -2.7 | 0.1 | 1.7 | i | 10.6 | -9.3 | -3.4
O=C1OCc2ccc(NC(=O)c3ccccc3C(=O)O)cc21 | -5.6 | -8.1 | -0.1 | 4.4 | i | -6.0 | -10.0 | -0.4
CCc1nc2c(OCC3COc4ccccc4O3)cccn2c1N(C)C(=O)c1ccc(OC)cc1 (stereo not given) | -11.7 | / | -3.5 | -5.6 | / | -28.8 | / | /
O=C(NCCc1ccccc1)C1CCN(S(=O)(=O)N2CCOCC2)CC1 | -0.2 | -6.3 | 1.5 | 4.0 | i | 4.8 | -8.0 | 19.8
CC12CCC(C(=O)OC3CCCCC3)(OC1=O)C2(C)C (stereo not given) | 18.9 | -10.3 | -6.4 | -3.8 | i | 5.0 | -2.9 | -2.3
CSCC(C)N1CCC(n2nccc2NC(=O)c2ccccc2C)CC1 (stereo not given) | -4.8 | ? | -4.9 | 1.7 | i | 3.8 | 4.5 | 26.4 | PABP polyA inh retest=49.1
O=C(CSCCO)Nc1cc(C(F)(F)F)ccc1Cl | -14.3 | -8.4 | -0.9 | -3.0 | i | / | -2.6 | 5.0
CCc1ccccc1Nc1nc2ccccc2n1CC | -6.2 | -7.2 | -2.7 | -0.9 | i | 1.3 | 8.7 | -4.4
Cc1cc(=O)[nH]c(SCC(=O)Nc2ccc3c(c2)OCCO3)n1 | / | -0.6 | 0.6 | 1.7 | i | -1.2 | -10.1 | -14.4
CCOCCOC(=O)c1[nH]c2c(c1C)C(=O)CC(c1ccccc1)C2 (stereo not given) | 14.0 | 2.3 | 18.2 | -4.9 | i | i | 55.1 | 2.1
CC(=O)C1=C(C)Nc2ncnn2C1c1ccc(Br)cc1 (stereo not given) | / | -7.9 | 7.7 | 3.5 | i | 7.4 | -6.6 | 2.3
Other records
SMILES | UUG fidelity | eIF4H inh | MT1-MMP act inh | MT1-MMP act inh RFP | Rce1 inhib | Env fusion inh | CSC inhib | PABP polyA inh | others
N#Cc1ccc(S(=O)(=O)NC2CCCCNC2=O)cc1 (stereo not given) | -5.2 | -9.9 | -3.5 | -0.1 | i | -3.2 | -4.8 | 15.7
Cc1cc(C)c2c(=O)[nH]cnc2n1 | / | 3.2 | 4.6 | 3.6 | i | 9.2 | -6.6 | 5.4
COc1ccc(C2Nc3ccccc3C(=O)N2NS(=O)(=O)c2ccc(C)cc2)cc1 (stereo not given) | / | 3.6 | -7.6 | -7.1 | i | 3.8 | / | 12.7
CN(Cc1c(C(=O)N2CCc3ccccc3C2)nc2ccc(Cl)cn12)C(C1CC1)C1CC1 | / | -3.5 | 1.5 | 2.6 | i | -7.1 | -3.4 | -2.0
CN1CCN(c2nc3c(c(=O)[nH]c(=O)n3C)n2CC(N)=O)CC1 | -15.3 | 2.7 | 10.4 | 3.6 | i | / | -13.9 | -4.6
C=C1c2ccccc2NC(=S)N1Cc1ccc2c(c1)OCO2 | / | -2.9 | -4.9 | -3.3 | / | -67.5 | -11.0 | -14.0
OC1CCN(C(=S)Nc2ccc(Nc3ccccc3)cc2)CC1 | / | 1.7 | 4.1 | 3.8 | i | -9.3 | -1.8 | -9.2
O=C(c1ccc(-n2cccc2)cc1)N1CCOCC1 | -11.2 | -2.7 | -1.8 | -0.1 | i | -91.8 | -7.1 | -6.0
COc1cc(NC(=O)c2cc(-c3ccco3)on2)c(OC)cc1Cl | -19.1 | -14.6 | -4.3 | -1.8 | i | / | -16.8 | -1.7
COc1ccccc1C#Cc1cnc2c(c1)C(=O)N([C@H](C)CO)C[C@@H](C)[C@@H](CN(C)C(=O)c1ccc3c(c1)OCO3)O2 | 8.4 | / | 2.5 | -0.8 | / | -1.1[16.7 µM] | / | /
CC(C(=O)Nc1ccc(N(C)C)cc1)N1C(=O)c2ccccc2S1(=O)=O (stereo not given) | -12.2 | / | 1.4 | 4.4 | i | / | -2.1 | /
O=C(N[C@H]1CCCCNC1=O)c1cc(COc2ccc(F)cc2F)on1 | -3.0 | -12.0 | -2.4 | 0.9 | i | -21.3 | -12.8 | -1.2
C[C@@H](NC(=O)c1nc[nH]c1C(=O)N1CCc2ccccc2C1)c1ccccc1 | 12.3 | / | 1.5 | -4.0 | / | -24.8 | 2.1 | /
O=C(COC(=O)Cc1ccc(Cl)cc1)NCc1cccs1 | -3.0 | / | -0.5 | 4.1 | / | / | -12.7 | /
COc1ccc(C(=O)CSc2nnc(NC(=O)C3CC(=O)N(c4ccccc4C)C3)s2)cc1 (stereo not given) | -16.0 | 3.5 | 0.4 | 1.1 | i | / | -9.9 | -6.4
Cc1nc2ccc(S(=O)(=O)NC(C(=O)Nc3nccs3)C(C)C)cc2s1 (stereo not given) | -7.5 | 1.2 | 1.2 | 3.3 | i | -11.4 | -17.1 | -3.0
COc1ccccc1N1CCN(C(=O)CCc2ccc(S(=O)(=O)NCC(C)C)cc2)CC1 | 1.7 | 1.3 | -2.2 | -10.3 | i | 19.9 | 10.8 | 23.4
CCn1c(=O)c2cc(C(=O)Nc3cccc(C(C)=O)c3)sc2c2ccccc21 | / | 1.0 | 4.1 | 1.6 | i | -8.8 | -7.6 | 1.9
CC(C)CSc1nc2c(=O)[nH][nH]c(=O)c2n1Cc1ccccc1 | -11.2 | -0.8 | 2.1 | 0.1 | i | / | -1.4 | 4.5
O=C1c2ccsc2SCCN1Cc1ccc(F)cc1 | -1.3 | -3.3 | 1.1 | 3.3 | i | -3.4 | 8.2 | 1.1
O=C(COc1ccccc1)N1CCN=C1SCc1cccnc1 | 11.8 | -10.8 | -10.6 | -8.5 | i | / | 13.9 | -1.0
COc1ccc(Cn2nc(C)cc2C)cc1OC | -6.4 | -3.2 | -1.4 | 1.6 | i | 27.8 | -17.0 | -5.4
CCCC(=O)NC(C)c1nc2ccccc2[nH]1 (stereo not given) | 7.9 | -10.0 | 1.3 | 3.4 | i | 8.8 | -3.2 | -11.1
COc1cc(/C=N/NC(=O)c2cccnc2)ccc1OCC(=O)N1CCOCC1 | -3.0 | -0.8 | 3.7 | 4.6 | i | 1.2 | -24.3 | -1.8
CC(=O)COc1ccc2c(-c3cccc([N+](=O)[O-])c3)cc(=O)oc2c1 | -17.2 | -6.2 | -1.4 | 1.7 | i | 13.9 | -10.4 | -1.7
Additional results.
SMILES | UUG fidelity | eIF4H inh | MT1-MMP act inh | MT1-MMP act inh RFP | Rce1 inhib | Env fusion inh | CSC inhib | PABP polyA inh | others
Cc1cc(OCC(=O)NCCCN2CCCC2=O)c2c(C)cc(=O)oc2c1 | / | 85.9 | 4.8 | 2.4 | i | 9.2 | 10.0 | -4.6 | eIF4H inh retest=3.7;PABP polyA inh retest=3.9
Cc1cc(C)c2c(n1)SCC(=O)N2CC(=O)Nc1c(C)cccc1C | -2.0 | -0.6 | -2.5 | 0.1 | i | 11.6 | / | 0.5
CC1CCN(C(=O)c2cc3c(=O)n4ccccc4nc3s2)CC1 | -6.9 | -5.2 | -0.2 | 1.1 | i | -17.0 | / | -0.4
CCC1(CC)Cc2ccccc2-c2nc(NN)[nH]c(=O)c21 | -3.6 | -6.0 | 1.2 | 4.0 | i | -21.3 | 33.7 | -2.6
CCOC(=O)C1CCN(C(=O)C2CCN(S(=O)(=O)c3cc(Cl)ccc3OCC)CC2)CC1 | 19.1 | -10.4 | 0.1 | -0.9 | i | -1.9 | -0.2 | 1.1
Cc1nc(-c2ccccc2)sc1C(=O)NN | / | -1.0 | 1.5 | -0.4 | i | 8.0 | -13.0 | 1.2
COc1ccc(NC(=O)Cc2coc3ccc4ccccc4c23)cc1S(=O)(=O)N1CCOCC1 | -1.8 | -22.2 | -2.9 | -12.2 | i | -9.4 | 1.4 | -9.7
O=C(c1n[nH]c2ccccc12)N1CCOCC1 | / | -1.7 | 2.5 | 3.9 | i | -0.3 | -2.5 | 7.4
O=C(c1ccc(Cl)cc1Cl)N1CCC(c2nc3c(nnn3Cc3ccco3)c(=O)[nH]2)CC1 | 12.1 | -9.8 | 3.4 | -2.3 | i | / | 1.0 | -4.0
C=C(C)[C@@H](O)COc1c2ccoc2cc2oc(=O)ccc12 | -1.8 | / | -0.1 | -0.4 | / | -72.4 | -18.6 | /
O=C(CCn1nc(-c2ccccc2)ccc1=O)N1CCOCC1 | / | 0.5 | -1.0 | 0.2 | i | / | -11.4 | 3.4

Reprinted at random: 2 compounds from above
SMILES | UUG fidelity | eIF4H inh | MT1-MMP act inh | MT1-MMP act inh RFP | Rce1 inhib | Env fusion inh | CSC inhib | PABP polyA inh | others
CC(C)CSc1nc2c(=O)[nH][nH]c(=O)c2n1Cc1ccccc1 | -11.2 | -0.8 | 2.1 | 0.1 | i | / | -1.4 | 4.5
C=C(C)[C@@H](O)COc1c2ccoc2cc2oc(=O)ccc12 | -1.8 | / | -0.1 | -0.4 | / | -72.4 | -18.6 | /

This is a subset; the hit share may differ from the screen's.
